Screens: PubChem BioAssay, ICCB-Longwood Screening Facility, Harvard Medical School
VACV E9 pol inh: vaccinia E9 polymerase processive synthesis inhibition | AID 493162 | normalized absorbance, % (concentration not given with the values) | 0.94% of 46,000 active | in vitro processive DNA synthesis, absorbance read-out; hits give low values; some inactives read as strong as hits;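 active means replicate mean up to 90% and picked by the depositor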;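 further: 100% = median of the test wells of a plate; 100 nL library stock went into each well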
Numbers without * were called inactive.

mol	VACV E9 pol inh
Cc1ccc(C(=O)NC(O)(C(F)(F)F)C(F)(F)F)cc1	96
Clc1cc2c(c3ncccc13)OCN(CCCN1CCOCC1)C2	100
CCn1c2ccccc2c2cc(CN(C)Cc3ccccc3)ccc21	100
Fc1ccc(CSC(=S)N2CCN(C(=S)SCc3ccc(F)cc3)CC2)cc1	94
Oc1c(C(Nc2ccccn2)c2ccccc2)ccc2cccnc12 (centres undefined)	106
CCC(=O)N1CCc2cc(S(=O)(=O)N(CC)CC)ccc21	106
CC(NC(=O)c1ccco1)C(c1cccs1)N1CCN(c2ccccc2)CC1 (centres undefined)	100
COc1ccc2cc3cc(C(=O)NCCN(C)C)oc3nc2c1	40*
CN(C)S(=O)(=O)c1ccc2c(c1)Cc1cc(S(=O)(=O)N(C)C)ccc1-2	78
CNS(=O)(=O)c1cccs1	102
Oc1ccc(Oc2c(F)c(F)c(Oc3ccc(O)cc3)c(F)c2F)cc1	102
O=C(Nc1ccccc1-c1nc2ccccc2[nH]1)c1ccc(F)cc1F	104
Cc1cccn2c(=O)c(C=Nc3ccc(Cl)cc3)c(Sc3ccccc3)nc12	100
CC1CCCCN1CCNC(=O)CCc1nnc2n(Cc3ccc(F)cc3)c(=O)c3ccccc3n12 (centres undefined)	92
Cc1cccc(/C=C2\Sc3ccc(C(=O)NC(C)C)cc3N(C)C2=O)c1	92
Fc1ccccc1-c1nnc2ccc(C(F)(F)F)cn12	101
COc1ccc(C2=CC(c3cccs3)NC(=S)N2)cc1 (centres undefined)	98
CSc1sc(C#N)c2c1C(=O)CC(c1ccccc1)C2 (centres undefined)	102
c1cc2c(cc1C1=Nn3cnnc3SC1)OCCO2	100
COc1ccc(/C=C2\SC(=S)N(CCC(=O)N(Cc3ccccc3)C(C)(C)C)C2=O)cc1OC	100
CC1CC(=O)C2=C(C1)Nc1ncnn1C2c1ccccc1 (centres undefined)	100
Cc1cccc(/C=C2\CS/C(=C\c3cccc(C)c3)C2=O)c1	97
O=C(COC(=O)c1cc2ccccc2oc1=O)c1ccccc1	100
CCCCC[C@H](O)C/C=C1/C(=O)C=C[C@@H]1C/C=C\CCCC(=O)O	100
COc1ccccc1NC(=O)C1=C(C)NC2=C(C(=O)CC(C)(C)C2)C1c1ccc(Cl)cc1Cl (centres undefined)	101
CCOC(=O)C1=C(C)Nc2nc3ccccc3n2C1c1ccccc1 (centres undefined)	100
CC(=O)Nc1ccc(-c2ccc(NC(C)=O)cc2)cc1	99
CCOC(=O)Oc1c(Cl)cc2oc(=O)sc2c1Br	100
S=C(c1ccc(Br)cc1)N1CCCC1	99
FC(F)(F)c1nnc2n1N=C(c1ccccc1)CS2	100

Looked up by compound from the entries so far:
mol	VACV E9 pol inh
CC1CC(=O)C2=C(C1)Nc1ncnn1C2c1ccccc1 (centres undefined)	100
Cc1cccc(/C=C2\CS/C(=C\c3cccc(C)c3)C2=O)c1	97
CCC(=O)N1CCc2cc(S(=O)(=O)N(CC)CC)ccc21	106
CCn1c2ccccc2c2cc(CN(C)Cc3ccccc3)ccc21	100
O=C(Nc1ccccc1-c1nc2ccccc2[nH]1)c1ccc(F)cc1F	104

Going on with the list.
mol	VACV E9 pol inh
CN(C(=O)c1ccc2c(Cl)c3c(nc2c1)CCCC3)C1CCCCC1	94
Cc1cc(C)cc(Oc2ccc(C#N)c(C#N)c2)c1	111
C=CCNC(=O)C1C2C=CC(C2)C1C(=O)OC(C)C (centres undefined)	100
O=C(/C=C/c1ccccc1)NCCn1ccc2ccccc21	101
O=C(Nc1cccc(F)c1)c1cc(S(=O)(=O)N2CCCCC2)ccc1F	100
CC(C)(C)NS(=O)(=O)c1cccc2nsnc12	102
Cc1ccc(-c2csc(NC(=O)C(C)C)c2C(=O)O)cc1	97
CN1C(=O)SC(Cc2ccc(C#N)cc2)C1=O (centres undefined)	83
CC1(C)CC(NC(=O)N2c3ccccc3CCc3ccccc32)CC(C)(C)N1	101
COC(=O)c1cc(=O)c2cc(NC(=O)c3ccc(OC(F)(F)F)cc3)ccc2[nH]1	101
CCc1nnc(NC(=O)c2nc(-c3ccc(Cl)cc3)n3c2CCCCC3)s1	102
CC(Cc1c[nH]c2ccccc12)NC(N)=O (centres undefined)	100
Cc1c(CO)[nH]c2ccc(Cl)cc12	95
CC(=O)Nc1cccc(C(C(F)(F)F)C(F)(F)F)c1	96
Cc1csc(NC(=O)CSc2nc(C34CC5CC(CC(C5)C3)C4)ccc2C#N)n1	99
COc1ccc(Cl)cc1N=Cc1sccc1C	106
Cc1nn(-c2ccccc2)nc1-c1nnc(-c2ccc(Cl)c(Cl)c2)o1	98
COc1ccc(C(=O)Nc2sc3c(c2C(=O)NCC2CCCO2)CCCC3)cc1 (centres undefined)	102
CC1=C(C(N)=O)C(c2cccnc2)n2nnnc2N1 (centres undefined)	113
Cn1c(=O)c2cc(C(=O)NCC3(c4ccccc4)CCCC3)sc2c2ccccc21	103
COc1ccc(-c2noc(N3CCC(C(=O)Nc4cccc(OC)c4)CC3)n2)cc1	107
CN1CCCN(C(=O)c2sc3ccccc3c2Cl)CC1	107
Cc1ccc(-c2csc(NC3OC(=O)c4ccccc43)n2)cc1 (centres undefined)	96
COc1ccc(/C=C/C(=O)O)cc1S(=O)(=O)N(C)CCO	100
O=C(O)Cn1c(-c2ccccc2)nc2ccccc21	106
CCN1C(=O)c2cccc3c(NC(=O)C4CCCCC4)ccc1c23	93
O=C(c1cc2cc(Br)ccc2oc1=O)N1CCOCC1	100
CC(=O)N1c2ccccc2C2=NNC(=S)NC21O (centres undefined)	100
CC(=O)Nc1cccc(NC(=O)c2cccnc2)c1	104
O=C(NCCN1CCOCC1)c1ccccc1Oc1ccccc1	100

Entries shown so far that have an aryl thioether with sulfur outside any ring (three):
mol	VACV E9 pol inh
Cc1cccn2c(=O)c(C=Nc3ccc(Cl)cc3)c(Sc3ccccc3)nc12	100
CSc1sc(C#N)c2c1C(=O)CC(c1ccccc1)C2 (centres undefined)	102
Cc1csc(NC(=O)CSc2nc(C34CC5CC(CC(C5)C3)C4)ccc2C#N)n1	99

The listing continues:
mol	VACV E9 pol inh
CSc1ncc(Cl)c(C(=O)Nc2ccc(S(=O)(=O)N3CCCCC3)cc2)n1	102
O=C1c2ccccc2OCC1(CO)CO	111
Oc1ccc(-c2n[nH]c(C(F)(F)F)c2-c2cnn(-c3ccccc3)c2)c(O)c1	101
O=C(Oc1nsnc1N1CCOCC1)c1ccccc1	100
Cc1ccc(S(=O)(=O)CCSc2nccc(-c3cccs3)n2)cc1	97
CCOC(=O)C1=C(C)NC2=C(C(=O)C(C(=O)OC)C(C)C2)C1c1ccccc1 (centres undefined)	90
COC(=O)C1=C(C)NC(=O)CC1c1ccccc1I (centres undefined)	100
N#CCS(=O)c1ccccc1 (centres undefined)	110
Cc1cc2ccccn2c1C(=O)Nc1ccccc1	95
Cc1ccc2cc(CCNC(=O)c3ccccc3)c(=O)[nH]c2c1	89
Cc1ccc(S(=O)(=O)C2(C(=O)Nc3ncccc3C)CC2)cc1	104
CCC1(CC)Cc2ccccc2-c2[nH]c(=S)n(Cc3ccccc3)c(=O)c21	100
CCC(C)NC(=O)c1cc2cc3cc(OC)ccc3nc2o1 (centres undefined)	101
O=C1CNC(=S)N1Cc1ccccc1Cl	92
COc1ccc(CC(C#N)C#N)cc1	106
CC(=O)Oc1ccc(C(=O)N(C(=O)c2ccc(OC(C)=O)cc2)c2cc(C)ccn2)cc1	100
COc1ccc(N2CCN(CCCn3c(NN)nc4ccsc4c3=O)CC2)cc1	98
COC(=O)c1cc2sccc2n1CC(=O)c1ccccc1	81
Nc1nonc1-n1nnc(C(=O)O)c1-c1ccccc1	94
CCCC(=O)N=c1sc2cc(Cl)ccc2n1CC	96
CCc1ccc(OCC(O)CN2CCCCC2)cc1 (centres undefined)	95
O=C(O)CSc1nc2ccccc2nc1SCC(=O)O	100
N#Cc1sc2nc(-c3ccccc3)cc(C(F)(F)F)c2c1N	105
O=S(=O)(NCc1ccccc1)c1ccccc1F	98
COc1ccc(-c2cn[nH]c2-c2ccc(OC)cc2)cc1	99
Cc1c(CN2CCSCC2)c(=O)n(-c2ccccc2)n1C	89
Cn1c(=Nc2ccc(N3CCOCC3)cc2)ccc2ccccc21	100
CCCNS(=O)(=O)c1cc(Br)cc2c1N(C(=O)CC)CC2	99
CCOc1ccc(S(=O)(=O)c2c(C(=O)c3ccc(C)c(C)c3)cnc3ccc(F)cc23)cc1	107
CCOC(=O)Cn1nc(-c2ccccc2)c2cnc3ccc(CC)cc3c21	92

Rewritten with each value named: entries from further up.
CC1CCCCN1CCNC(=O)CCc1nnc2n(Cc3ccc(F)cc3)c(=O)c3ccccc3n12 (centres undefined)
- VACV E9 pol inh: 92

Cc1ccc(-c2csc(NC(=O)C(C)C)c2C(=O)O)cc1
- VACV E9 pol inh: 97

Continuation.
mol	VACV E9 pol inh
CCN1CCN(C(=O)/C=C\C(=O)O)CC1	97
CC(C)CCNc1nc2ccccc2n2cnnc12	96
Cc1ccc(NC(=O)CCc2ccc(C)o2)cc1	101
CCCc1nc2ccccc2n1CC(=O)c1ccc(F)cc1	101
FC(F)(F)c1cnc2c(-c3ccc(Cl)cc3Cl)onc2c1	104
CN(C(=O)c1ccc2c(c1)OCO2)C1CCCCC1	109
CC(C)CCN(C)C1CCN(C(=O)Nc2ccc(Cl)c(Cl)c2)CC1	103
Cc1ccc(-n2nc3c(c2NC(=O)C2CCCC2)CS(=O)C3)cc1 (centres undefined)	100
CCOc1ccc(C2=NC3(CCN(C(C)C)CC3)NC(c3cc(Cl)ccc3O)C2)cc1 (centres undefined)	105
O=C(/C=C/c1ccccc1)NC1CCCc2ccccc21 (centres undefined)	96
CCc1ccc(-c2cc3c(=O)n(CC(=O)NC(C)CCc4ccccc4)nc(C)n3n2)cc1 (centres undefined)	108
Cc1cccc(NC(=O)CC2CC3CCC2C3)c1 (centres undefined)	109
Cc1ccc(CSC2NCC(C)N2)cc1C (centres undefined)	118
Cn1c([N+](=O)[O-])cnc1COC(N)=O	100
N#Cc1ccc(COC(=O)COc2ccccc2)cc1	103
COc1cc(Cl)c(C)cc1NC(=O)NCc1noc2ccc(C)cc12	102
CC(C)C(CC(=O)O)NCc1ccccc1Cl (centres undefined)	104
CC(=O)NC(C)(C)COc1ccc(Cl)cc1	100
O=c1[nH]ncc(NCC2CCCO2)c1Cl (centres undefined)	101
C1=C2CCc3c([nH]c4ccccc34)C2N(c2ccccc2)N1 (centres undefined)	93
N#CCCn1c(-c2cncs2)nc2ccccc21	98
COc1ccc(Cl)cc1NC(=O)CN1C(=O)CC(c2ccccc2)S(=O)(=O)c2ccccc21 (centres undefined)	102
COCc1[nH]c(=S)[nH]c(=O)c1Cc1c(F)cccc1Cl	94
Oc1ccccc1-c1nnc(SCc2ccccc2)n1-c1ccccc1	101
CC(=O)Nc1ccc2c(c1)CCC2=O	90
CCOc1ccccc1NC(=S)N(Cc1c[nH]c2ccccc12)C(C)C	102
COC(CNC(=O)c1cccc2c1C(=O)N(Cc1cccnc1)C2)OC	97
Cc1cc2c(n1-c1ccc(C(=O)NC(C)c3ccccc3)cc1)CCCC2 (centres undefined)	104
CCS(=O)(=O)c1nnnn1-c1ccccc1S(C)(=O)=O	102
Cc1ccc2cc(CCNC(=O)c3cc4ccccc4oc3=O)c(=O)[nH]c2c1C	99
CCc1ccc(NC(=O)c2cc3cc4ccc(C)cc4nc3o2)cc1	100
CCOc1ccc(-c2nnc3ccc(SC)nn23)cc1	101
COc1ccc2cc(CCNC(=O)COc3ccccc3)c(=O)[nH]c2c1	90
O=C(Cn1c(=O)sc2ccccc21)NCc1ccccn1	106
CSc1n[nH]c(-c2cccc(Cl)c2)c1C#N	83
Nc1ncc(Br)cc1S(=O)(=O)NCCc1ccccc1	97
CC(=O)N1CCc2ccccc2C1	100
CN(C)c1ccc(NC(=O)c2cc(C(F)(F)F)cc(C(F)(F)F)c2)cc1	106
N#CC1=C(SCC(=O)Nc2ccc(F)cc2)NC(=O)C(C#N)C12CCCCC2 (centres undefined)	100
CC(C)CNC(=O)c1cc2n(n1)C(C(F)(F)F)CC(c1ccco1)N2 (centres undefined)	105
Cc1oc(-c2ccccc2)nc1Cn1cccc1C1=NC(c2ccccc2)CO1 (centres undefined)	103
CNC(=O)c1cccc2c1-c1ccccc1C2=O	101
NNC(=O)c1cccc(Cn2cccn2)c1	100
Clc1ccc(C(OCCN2CCCCC2)c2ccccc2)cc1 (centres undefined)	98
N#Cc1ccc(C(=O)Nc2ccn(-c3ccccc3)n2)cc1	107
COc1ccc2cc(C=NCc3ccc(C)cc3)c(N3CCCCC3)nc2c1	100
CCOC(=O)CN1C(=O)S/C(=C\c2ccc(-c3ccc(Cl)cc3Cl)o2)C1=O	100
C=CCn1c(N)cc(=O)nc1SC(C)C(=O)Nc1ccccc1 (centres undefined)	100
CCN(CC)CC(O)COC1C2CC3CC(C2)CC1C3 (centres undefined)	87
CC(=O)Oc1cccc(/C=c2/sc3nc(-c4ccc(F)cc4)nn3c2=O)c1	83
C=CCNc1ncnc2c1c(-c1ccccc1)cn2-c1cccc(C(F)(F)F)c1	100
Cc1[nH]c2ccccc2c1SCCNC(=O)C1CC1	101
O=C(C1CCCCC1)N(c1ccc2oc3c(c2c1)CCCC3)S(=O)(=O)c1cccs1	100

Some of the compounds tested; rates above refer to the full screens.
